Mtb hypoxia inh = Mtb hypoxia fluorescent reporter inhibition | AID 1159583 | M. tuberculosis hypoxia-regulated fluorescent reporter, fluorescence | fluorescence inhibition, % (test concentration not listed) | 300,000 compounds, 0.1% hits;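 active means 35 to 45% if threefold the growth effect, above 45% if 1.5-fold the growth effect; inactive means the rest, general growth blockers included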;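 further: wells of about 50 µL received 100 nL stock; 0% = vehicle wells and 100% = reference inhibitor wells; whole bacteria with a GFP reporter of the hypoxia response; strong numbers were not always called active; many hits fall short of the cut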
Bead autofluor = flagged as autofluorescent in microsphere protease counterscreen; compound autofluorescence counterscreen, microsphere flow cytometry; hits give high values; fluorescence intensity (test concentration not listed); 360,000 compounds, 3.1% hits;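 active means at least 3 SD above the mean of all compounds, about 16000 in these data; inconclusive means too few beads counted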;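 further: 100 nL of 1 mM stock went into each well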
BJeLR viability = BJeLR cell viability loss; BJeLR (HRASV12) viability, CellTiter-Glo ATP luminescence, 48 h; reference of the scale not given here; inhibition, % (test concentration not listed); 300,000 compounds, 0.17% hits;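 active means replicate mean above 50%; inconclusive means above 50% but judged a plate artefact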;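 further: 50 nL library stock added to about 25 µL; numbers are from one replicate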
PrP 5UTR inh = suppresses PrP 5' UTR mRNA reporter expression; cell-based PrP 5' UTR mRNA reporter, plate reader; inhibition, % (test concentration not listed); 340,000 compounds, 0.35% hits;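 active means every replicate at 50% or more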;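 further: 0 = median of the neutral control wells; tested in H4 reporter cells; numbers are from one replicate; inactives centre near -14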
ugtP null kill = growth inhibition of S. aureus ugtP deletion strain; S. aureus RN4220 ugtP deletion, OD600 growth, 16 h; some inactives read as strong as hits; growth inhibition, % (test concentration not listed); 330,000 compounds, 0.54% hits; AID 1259309;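 active means z-score under -3 and OD600 up to 0.15 on both plates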;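 further: plate controls were untreated wells for no effect and antibiotic for full effect; wells of about 80 µL received 100 nL stock; the first replicate is given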
RN4220 kill = kills Staphylococcus aureus RN4220; S. aureus RN4220 growth, OD600, 16 h; inhibition, % (test concentration not listed); 330,000 compounds, 0.33% hits; AID 1259311;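 active means z-score of -3 or lower and OD600 up to 0.18 on both plates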;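 further: plate controls were untreated cells for no effect and reference antibiotic for full effect; stock transfer was 100 nL into about 80 µL; one replicate is shown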
Mtb hypoxia inh growth = further read-out of Mtb hypoxia inh, marked with its call; growth inhibition, %; measured here: M. tuberculosis growth (absorbance);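 0% = vehicle and 100% = reference antibiotic; read after six days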
The depositor's hits bear a star; ? = inconclusive; . = no result given; & = joins results of further samples.

SMILES	Mtb hypoxia inh	Mtb hypoxia inh growth	Bead autofluor	BJeLR viability	PrP 5UTR inh	ugtP null kill	RN4220 kill
O=C1OCCN1C(=O)[C@H]1[C@H](c2ccc(F)cc2)C(c2ccc(F)cc2)=NN1c1ccc(Br)cc1	.	.	3949	1.3	-7.0	.	.
Nc1nnc(SCC(=O)OCC(=O)Nc2ccc(Br)cc2F)s1	-3.8	-3.0	3256	.	-27.0	5.0	1.4
O=C(C1=NN(c2ccccc2)C(=O)CC1)N1CCc2ccccc2C1	1.0	1.5	5969	3.9	-6.3	4.9	1.8
CCN(CC)S(=O)(=O)c1cc(NC(=O)NCCCl)ccc1C	-5.4	-15.0	4397	-15.4	15.4	-1.5	2.3
COc1ccc(C(=O)CSc2nnc(COc3ccccc3)n2Cc2ccco2)cc1	2.9	1.1	23939*	3.1	-15.7	-12.9	8.1
CC1CCCC(NC(=O)c2ccc3c(SCC(=O)O)c4c(nc3c2)CCC4)C1C (centres undefined)	9.7	2.6	5206	-1.5	4.8	-5.7	1.1
CC(Sc1ccccc1)C(=O)N/N=C/c1cccnc1 (centres undefined)	.	.	4159	-5.4	-19.6	.	.
CC(C)Cn1c(-c2csc3ccccc23)n[nH]c1=S	8.6	9.7	10325	-10.6	.	-6.4	3.5
COc1ccc(/C(C)=N/Nc2ccc(F)cc2F)c(O)c1	.	.	4386	7.3	23.3	.	.
COc1cc(C(=O)NCCCN2CCCC2=O)cc(Br)c1OCc1ccccc1	7.5	-1.7	6722	.	-7.2	20.8	5.8
COc1ccc(NC(=O)CN(C)C(=O)c2c(-c3ccccc3Cl)noc2C)cc1	-8.4	2.9	7398	-3.8	-19.1	-9.6	-3.4
N#CC1=C(N)Nc2nc3ccccc3n2C1c1ccc(F)cc1 (centres undefined)	9.5	6.2	2008	9.9	-5.0	0.0	6.2
O=C(O)CNC(=O)c1ccc(Sc2ccccc2)c([N+](=O)[O-])c1	8.9	8.9	4280	7.0	-33.3	6.4	-3.1
COC(=O)Nc1ccc(S(=O)(=O)N2CCC(C(=O)N(C)C3CCCCC3)CC2)cc1	1.0	6.8	4890	0.8	-8.5	5.0	0.9
O=Cc1c(Nc2cccc(C(F)(F)F)c2)nc2ccccn2c1=O	.	.	4098	-3.4	-14.8	-1.8	2.1
O=C(COC(=O)/C=C/c1ccc(S(=O)(=O)N2CCOCC2)cc1)NCc1ccccc1	6.3	-0.3	4275	4.5	-11.6	-0.1	3.9
CCOc1cc(/C=N/NC(=O)C(C)Sc2ccccn2)ccc1O (centres undefined)	.	.	2127	-11.3	-16.6	.	.
COc1ccc(OC)c(C(=O)COC(=O)C(CCSC)NC(=O)COc2ccccc2)c1 (centres undefined)	8.2	-2.5	4640	-9.6	-22.7	-1.4	2.9
O=C(CCn1cnc2ccccc21)NN=Cc1ccccc1O	-3.3	0.0	.	.	.	3.4	0.1
CN(C)S(=O)(=O)c1ccc(-c2csc(NN=Cc3ccc(O)cc3)n2)cc1	2.8	19.6	.	.	.	11.5	16.8
O=C(CCCSc1nnc(Nc2ccccc2F)s1)N1CCOCC1	6.9	17.3	4297	5.5	-25.2	4.3	5.8
CC(C)NC(=O)NC(=O)CSc1nncn1C	-4.9	4.6	11091	-10.6	-12.8	-0.2	3.4
O=C(Nc1ccncc1)C1CC(=O)N(c2ccc(F)cc2)C1 (centres undefined)	-4.6	2.1	5856	2.6	-7.7	2.5	1.1
CCCN(CC(=O)Nc1ccccc1OC)C(=O)C1CCCC1	4.2	13.3	6052	-2.7	-6.0	-0.2	3.1
CN(C)S(=O)(=O)c1cccc(NC(=O)COC(=O)c2cccn2C)c1	0.9	-1.7	5555	17.6	-10.1	8.4	3.8
CNC(=O)/C(=C\c1cccc(Oc2ccccc2)c1)NC(=O)c1ccccc1	-0.3	3.3	2124	-6.2	-7.6	-5.6	10.8
Cc1ccc(N2CC(C(=O)NC3CC3)CC2=O)cc1Cl (centres undefined)	-5.9	-4.3	3306	-4.0	-36.0	9.8	5.5
Brc1ccccc1-c1nnc2sc(-c3ccc4c(c3)OCCO4)nn12	15.5	4.1	9673	2.0	-2.8	-8.0	7.0
CCCCC(=O)Nc1ccc(NC(=S)NC(=O)CC(C)C)cc1OC	6.5	3.0	2141	-12.1	-11.0	7.3	9.3
O=C(O)c1ccc(NN=Cc2c[nH]c3ccccc23)cc1	20.4	6.6	.	.	.	1.9	-1.2
Cc1cccc(N2CCN(C(=O)CN(C)S(=O)(=O)c3ccc4c(c3)CCC(=O)N4)CC2)c1C	7.2	7.5	5497	3.1	-13.1	5.6	-1.8
O=[N+]([O-])c1nn(-c2ccc3c(c2)OCCO3)n(O)c1=NCc1ccc(F)cc1	4.9	-7.6	11416	-7.1	-23.7	12.7	-4.7
CCCN=C1N(C)C[C@@H]2[C@@H]3C(=O)N(C)C(=O)[C@@H]3[C@](CC)(C(=O)OC)N12	-0.9	1.5	3670	.	-12.3	7.0	1.6
Cc1cc(OCCOCCN(C)C)ccc1Cl	15.1	7.1	2091	7.6	-11.3	3.2	1.7
CS(=O)(=O)Nc1ccccc1C(=O)NCCSc1ccccc1	14.3	3.2	3340	-1.5	-16.2	11.3	6.5
Cc1ccc(-n2c(Cc3noc4ccccc34)n[nH]c2=S)cc1	-0.3	-4.9	3254	-2.8	-20.6	3.2	1.1
FC(F)(F)c1ccc(/C=N/n2c(COc3ccccc3)n[nH]c2=S)cc1	.	.	3116	-0.4	-14.9	.	.
COc1cc(OC)cc(N(C(=O)CNC(=O)c2cccs2)C(C(=O)NCC2CCCO2)c2ccccc2)c1 (centres undefined)	5.0	2.9	3696	4.2	-13.9	-1.8	3.9
OCCC1CC(O)C(O)[C@]2(CCCc3ccccc3O2)O1 (some centres undefined)	-9.2&3.2&-1.1	7.2&10.7&15.2	.	.	.	-3.0&4.9&-8.6	0.9&4.8&2.0
Cc1ccc(-c2noc(CCCc3ccccc3)n2)cc1	.	.	3706	9.6	-36.7	65.0	4.1
Cc1cc(NC(=O)c2ccc(Br)c([N+](=O)[O-])c2)no1	4.4	4.2	4432	8.1	82.9*	3.7	0.0
Cc1ccc(Nc2nnc(SCc3cc(=O)n4ccsc4n3)s2)c(C)c1	4.9	2.7	4378	13.7	-2.1	-17.4	3.1
COc1ccc(/C(N)=N/OC(=O)c2ccc3c(c2)OCO3)cc1OC	18.1	5.2	6345	-23.6	-75.1	5.9	7.5
COc1ccc(NC(=O)Nc2cccc3c2O[C@H](CN(C)S(=O)(=O)c2c(C)noc2C)[C@@H](C)CN([C@H](C)CO)C3=O)cc1	5.0	7.5	3310	.	-19.9	2.9	2.4
O=C(COC(=O)c1cc(S(=O)(=O)N2CCOCC2)ccc1F)NCc1ccc2c(c1)OCO2	2.7	5.2	4558	.	-12.4	4.3	-0.1
Cc1ccc(NC(=O)CNC(=O)c2ccco2)cc1Cl	-8.3	8.5	3491	3.1	-10.6	-8.4	-0.5
O=C(COc1ccc(S(=O)(=O)N2CCCCC2)cc1Cl)N1CCOCC1	4.4	-10.8	3433	15.9	-0.9	7.5	5.4
Cc1cc(NS(C)(=O)=O)c(=O)n(Cc2cccc(F)c2)c1	9.6	6.0	3869	-3.5	-26.6	0.9	0.6
CCC(C(=O)OCC(=O)N(C)c1c(N)n(Cc2ccccc2)c(=O)[nH]c1=O)c1ccccc1 (centres undefined)	2.8	7.4	.	-3.4	-15.7	-0.8	-0.4
O=C(CSc1nc2c(sc3ccccc32)c(=O)n1CCO)NCC1CCCO1 (centres undefined)	6.4	8.2	4548	-3.0	-10.4	2.1	6.4

(cont.)
SMILES	Mtb hypoxia inh	Mtb hypoxia inh growth	Bead autofluor	BJeLR viability	PrP 5UTR inh	ugtP null kill	RN4220 kill
Cn1c(=O)cc(SCC(=O)Nc2cccnc2)c2ccccc21	1.2	10.7	3871	-19.1	-16.0	-13.7	0.5
Cc1ccc(C2=NS(=O)(=O)N(C)C(C(=O)NC3CCCCC3)=C2)cc1	3.9	2.2	6054	10.4	-14.0	0.8	6.8
CSCCC(NS(=O)(=O)c1ccccc1F)C(=O)Nc1cccc(C)n1 (centres undefined)	-8.3	3.4	?	5.1	-0.6	-6.8	2.2
COc1ccc(/C(=N/OC(C)=O)c2nccc3cc(OC)c(OC)cc23)cc1OC	.	.	6811	-7.1	-18.2	.	.
O=C1CCCN1CC1CCN(Cc2nc(CC3CC3)no2)CC1	-11.9	-0.3	4154	-4.1	-65.7	-0.7	2.1
O=C(Nc1cccc(Cl)c1N1CCOCC1)c1ccc([N+](=O)[O-])o1	4.7	15.9	4575	-2.7	-12.6	17.1	29.3
Cc1ccc(CS(=O)(=O)CCC(=O)NCc2cccs2)cc1	-5.4	-3.9	8813	-11.9	9.9	3.1	1.9
COc1c(Cl)cccc1-c1cn2ccccc2n1	6.0	-1.0	5922	14.2	-46.4	-2.8	8.2
CCOc1c(Cl)cc(CNCc2ccccn2)cc1OC	-2.4	2.0	3385	-3.2	7.6	3.2	2.7
COc1ccc(/C(C)=N\NC(=O)CNC(=O)C(c2ccccc2)c2ccccc2)cc1OC	.	.	5739	-7.7	1.2	.	.

Entries of single compounds as entered above. Order of screens: Mtb hypoxia inh, Mtb hypoxia inh growth, Bead autofluor, BJeLR viability, PrP 5UTR inh, ugtP null kill, RN4220 kill
COc1ccc(/C(C)=N\NC(=O)CNC(=O)C(c2ccccc2)c2ccccc2)cc1OC across the screens: ., ., 5739, -7.7, 1.2, ., .
O=C(COC(=O)c1cc(S(=O)(=O)N2CCOCC2)ccc1F)NCc1ccc2c(c1)OCO2 across the screens: 2.7, 5.2, 4558, ., -12.4, 4.3, -0.1
COc1ccc(/C(C)=N/Nc2ccc(F)cc2F)c(O)c1 across the screens: ., ., 4386, 7.3, 23.3, ., .

(list continues)
SMILES	Mtb hypoxia inh	Mtb hypoxia inh growth	Bead autofluor	BJeLR viability	PrP 5UTR inh	ugtP null kill	RN4220 kill
N#Cc1ccccc1NC(=O)c1ccc(-c2ccccc2Cl)o1	1.9	2.7	3121	1.1	-47.8	-0.9	15.0
COc1cc(C(=O)OCCNC(=O)c2ccncc2)cc(OC)c1OC	17.9	5.3	2162	3.4	-16.0	-0.2	4.1
CN1C(=S)SC(N(O)C(=O)Nc2cccc3ccccc23)C1(C)C (centres undefined)	.	.	2789	-6.3	-1.2	-4.9	1.5
CCOC(=O)C1=C(COC(=O)COc2ccc(C(C)=O)cc2)NC(=O)NC1C (centres undefined)	9.5	0.5	?	-5.4	-33.2	-0.1	2.4
O=C(CN1C(=O)NC2(CCc3ccccc32)C1=O)NCc1ccc(F)cc1 (centres undefined)	4.3	0.0	4784	.	-12.1	2.5	1.0
Cn1cnnc1SC(C(=O)Nc1ccc(F)cc1)c1ccccc1 (centres undefined)	10.5	5.5	3075	-1.2	-6.6	3.6	6.3
CCC1(C)Cc2c(sc3c2c(=O)n(C)c2nnc(SCc4ccccc4)n32)CO1 (centres undefined)	-6.9	0.9	14128	4.0	-5.3	0.1	-1.9
Cc1nn(-c2ccc(Cl)cc2)c(=O)c2c(C)noc12	-9.6	-17.4	4017	9.3	-21.9	3.7	4.4

Given with each value named: part of the list above.
Cn1cnnc1SC(C(=O)Nc1ccc(F)cc1)c1ccccc1 (centres undefined)
- Mtb hypoxia inh: 10.5
- Mtb hypoxia inh growth: 5.5
- Bead autofluor: 3075
- BJeLR viability: -1.2
- PrP 5UTR inh: -6.6
- ugtP null kill: 3.6
- RN4220 kill: 6.3
O=C(CN1C(=O)NC2(CCc3ccccc32)C1=O)NCc1ccc(F)cc1 (centres undefined)
- Mtb hypoxia inh: 4.3
- Mtb hypoxia inh growth: 0.0
- Bead autofluor: 4784
- BJeLR viability: .
- PrP 5UTR inh: -12.1
- ugtP null kill: 2.5
- RN4220 kill: 1.0
CN1C(=S)SC(N(O)C(=O)Nc2cccc3ccccc23)C1(C)C (centres undefined)
- Mtb hypoxia inh: .
- Mtb hypoxia inh growth: .
- Bead autofluor: 2789
- BJeLR viability: -6.3
- PrP 5UTR inh: -1.2
- ugtP null kill: -4.9
- RN4220 kill: 1.5
Cc1nn(-c2ccc(Cl)cc2)c(=O)c2c(C)noc12
- Mtb hypoxia inh: -9.6
- Mtb hypoxia inh growth: -17.4
- Bead autofluor: 4017
- BJeLR viability: 9.3
- PrP 5UTR inh: -21.9
- ugtP null kill: 3.7
- RN4220 kill: 4.4
